Bioassay records: PubChem BioAssay, National Center for Advancing Translational Sciences (NCATS)
Cruzain Triton: cruzain (T. cruzi) inhibition with detergent | P25779 | purified cruzain, Z-FR-AMC fluorescence, 0.01% Triton | Potency, µM, for inactives: max response, negative = inhibition, actives largely listed as inhibitors | hit rate 0.43% among 200,000 | AID 1478; active means well fitted curve in the direction sought with a large enough effect; inconclusive means small, poorly fitted or top-dose-only effect, or another doubt; inactive means no such curve, though single readings can be large; an effect the other way counts as inactive or inconclusive;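 further: plate controls were neutral wells for no effect and buffer without enzyme for full effect; nearly all actives have a fitted effect of over 40% in size; top concentration of the series not given in the record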
Target sequence (P25779 123-467 limits assumed): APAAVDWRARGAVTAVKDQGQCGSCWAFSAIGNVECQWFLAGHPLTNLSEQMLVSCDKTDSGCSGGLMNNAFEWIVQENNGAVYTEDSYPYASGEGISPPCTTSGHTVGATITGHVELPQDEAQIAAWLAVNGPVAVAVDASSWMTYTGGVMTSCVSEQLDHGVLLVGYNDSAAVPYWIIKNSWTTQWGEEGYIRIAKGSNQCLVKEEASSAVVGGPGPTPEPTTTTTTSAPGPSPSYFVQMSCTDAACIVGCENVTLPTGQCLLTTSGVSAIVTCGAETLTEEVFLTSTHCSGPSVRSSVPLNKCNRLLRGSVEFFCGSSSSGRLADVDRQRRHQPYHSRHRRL
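Compounds were screened in titration against cruzain (1.5 nM) with 0.01% Triton X-100 to counter colloidal aggregation. Activity was the AMC fluorescence increase over 60 s after adding 2 uM Z-FR-AMC at pH 5.5.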
StopGo reporter: lowers the luciferase signal of an FMDV 2A StopGo reporter; human cells with a luciferase reporter of 2A StopGo recoding; control for the full effect not named in the record; Potency, µM (top dose mostly 57.9 µM), without a hit: at the highest dose signal change, negative = less light; hit rate 1.2% among 410,000; active = well fitted falling curve with a large enough effect; inconclusive = small, poorly fitted or top-dose-only effect; inactive = no such curve, though single readings can be large or run the other way; tested in HEK293T cells; further: on the % scale 0 is the no-effect control and ±100 the full control effect; nearly all actives have a fitted effect of over 45% in size; luciferase light after 4 h
Marburg entry inh: inhibitors of Marburg virus binding or cell entry. Potency, µM (top dose mostly 37.8 µM), without a hit: at the highest dose activity change, negative = inhibition, usual class: inhibitors. Marburg virus pseudotyped entry inhibition, cell reporter; control for the full effect not named in the record; about a third of the inactives were read at about 46 µM. AID 540276. hit rate 1.8% among 300,000; active = well fitted inhibition curve with a large enough effect; inconclusive = small, poorly fitted or top-dose-only effect, or effect the other way; inactive = flat fitted curve, though single readings scatter; tested in HEK293 cells; about a fifth of its hits are not listed in these tables; further: on the % scale 0 is the no-effect control and ±100 the full control effect; luciferase read-out
LASV entry inh: inhibitors of Lassa virus binding or cell entry | Lassa virus pseudotype entry inhibition, cell reporter; control for the full effect not named in the record | Potency, µM (highest dose often 37.9 µM), without a hit: at the highest dose activity change, negative = inhibition, hits mostly inhibitors | hit rate 1.2% among 300,000 | AID 540256; active means well fitted inhibition curve with a large enough effect; inconclusive means small, poorly fitted or top-dose-only effect, or effect the other way; inactive means flat fitted curve, though single readings scatter; tested in HEK293 cells; further: on the % scale 0 is the no-effect control and ±100 the full control effect; nearly all actives have a fitted effect of over 50% in size; luciferase read-out
Cruzain noTriton: inhibitors of Trypanosoma cruzi cruzain without detergent | purified cruzain, Z-FR-AMC fluorescence, no detergent | P25779 | AID 1476 | Potency, µM, for inactives: max response, negative = inhibition, hits mostly inhibitors | hit rate 2.3% among 200,000; active means well fitted curve in the direction sought with a large enough effect; inconclusive means small, poorly fitted or top-dose-only effect, or another doubt; inactive means no such curve, though single readings can be large; an effect the other way counts as inactive or inconclusive;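 further: plate controls were enzyme without inhibitor for no effect and buffer without enzyme for full effect; nearly all actives have a fitted effect of over 40% in size; top concentration of the series not given in the record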
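Purified cruzain at 1.5 nM, pre-incubated 15 min with compound at room temperature in 100 mM sodium acetate pH 5.5, 5 mM DTT, 0.00005% Triton X-100. Reaction started with 2 uM Z-FR-AMC; AMC fluorescence increase over 60 s gives rate.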
RE007 growth inh: less growth of the S. pombe RE007 Vpr strain; Potency, µM (titrated, usually from 92.2 µM), inactives show at the highest dose activity change, negative = less growth; AID 651644; hit rate 0.21% among 360,000; S. pombe RE007 Vpr strain, BacTiter-Glo ATP luminescence, 24 h; control for the full effect not named in the record; active = well fitted falling curve with a large enough effect; inconclusive = small, poorly fitted or top-dose-only effect; inactive = no such curve, though single readings can be large or run the other way;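 further: on the % scale 0 is the no-effect control and ±100 the full control effect; nearly all actives have a fitted effect of over 50% in size; the assay follows cell death caused by Vpr and the record does not say whether a fall means rescue or toxicity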
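Fission yeast RE007 carrying one integrated HIV-1 vpr copy, seeded at OD 0.01 in PMG+AL medium with 23 nL pinned compound. Grown 24 h at 30 degrees; viability read by BacTiter-Glo luminescence after 5 min.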
SARS PLpro yeast: blocks SARS-CoV papain-like protease in a yeast assay; S. cerevisiae expressing SARS-CoV PLpro, growth rescue; control for the full effect not named in the record; Potency, µM (titrated, usually from 32.9 µM), for inactives: top-dose activity, positive = growth rescue; hit rate 0.19% among 330,000; further: 0% is about no effect; nearly all actives have a fitted effect of over 55% in size; growth read by luminescence after 48 h
NS1 inh: blocks influenza NS1 protein function | hit rate 0.4% among 270,000 | S. cerevisiae slowed by influenza A NS1, growth recovery by OD600 | AID 2326 | Potency, µM (series often up to 46.1 µM), for the others: top-dose activity, positive = more growth; further: actives are rising curves; nearly all actives have a fitted effect of over 50% in size
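Read-out: OD600 growth recovery of NS1-expressing budding yeast. Cells grown overnight at 30C in -URA glucose medium, washed, resuspended and diluted 1:100 in 2% galactose assay medium, pH 6.0. Same strain lacking NS1 served as positive control.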
* marks the source's active call; other numbers are inactive results; u = inconclusive; x = no result given; & = joins results of further samples; [ ] = remark or other dose. Unless noted, the call rests on the fitted dose curve; in most records, active means well fitted rising curve with a large enough effect; inconclusive means small, poorly fitted or top-dose-only effect; inactive means no such curve, though single readings can be large or run the other way. Potency means the concentration at half of the fitted maximal effect.

Every second line gives: Cruzain Triton	StopGo reporter	Marburg entry inh	LASV entry inh	Cruzain noTriton	RE007 growth inh	SARS PLpro yeast	NS1 inh
CC(=O)Nc1cccc(-c2csc(N)n2)c1
    x	15.2%	x	x	x	-11.6%	-0.4%	5.9%
O=C1CC(c2ccccc2)CC(O)=C1C=NCc1ccco1 (stereo not given)
    3.2%	x	-2.8%	1.0%	0.2%	0.1%	-6.2%	-23.4%
CC(NC(=O)c1ccc2c(c1)OCO2)C(c1cccs1)N1CCOCC1 (stereo not given)
    4.6%	x	16.9%	-3.0%	5.9%	1.0%	-3.5%	-17.7%
O=c1[nH]c(=S)[nH]c2c1CN(Cc1ccc(F)cc1)CC2
    x	2.7%	x	x	x	0.9%	1.1%	15.9%
Cc1c(OCC(=O)N2CCC(C(=O)O)CC2)ccc2c1oc(=O)c1ccccc12
    x	-16.5%	x	x	x	-0.3%	1.4%	13.2%
CCCOc1ccc(CNC(=O)c2ccc3c(c2)N(CC)CCS3)cc1
    x	-2.8%	x	x	x	0.2%	1.8%	-0.1%
O=C(NCCc1c[nH]c2ccccc12)C(=O)Nc1cc2c3c(c1)CC(=O)N3CCC2
    x	-25.9%	-30.3%	u	x	8.9%	-1.0%	x
COc1ccc(NC(=O)Cc2ccsc2)c(OC)c1
    x	20.0%	-3.5%[46.1 µM]	11.8%[46.1 µM]	x	7.0%	-1.7%	-0.7%
CS(=O)(=O)c1ccc(C(=O)N2CCc3ccccc3C2)cc1
    x	3.4%	-5.6%[46.1 µM]	5.6%	x	10.8%	3.3%	x
O=C(COC(=O)CN1C(=O)c2ccccc2C1=O)Nc1ccc(S(=O)(=O)N2CCCC2)cc1
    -1.7%	-6.5%	7.1%[46.1 µM]	-2.0%	-1.0%	-1.0%	5.0%	-17.2%
COc1ccc(CCN2CC(C(=O)NC3CCOCC3)CCC2=O)cc1 (stereo not given)
    x	-14.6%	x	x	x	-8.3%	10.3%	3.1%
CCc1cc(C(=O)OC)c(NC(=O)CC2SC(N)=NC2=O)s1 (stereo not given)
    x	-12.2%	-1.4%[46.1 µM]	0.2%	x	-10.8%	-0.2%	0.7%
COc1ccc2ccccc2c1C1CC(=O)N2CN(C)CSC2=C1C#N (stereo not given)
    -8.6%	-4.9%	-25.5%	-2.3%	u	-2.6%	8.8%	u
O=C(c1cc([N+](=O)[O-])ccc1N1CCOCC1)N1CCN(S(=O)(=O)c2cc(Cl)ccc2Cl)CC1
    x	0.0%	-0.2%	14.4%	x	-3.7%	2.3%	x
Cc1cccc2c1CC(C)(C)N=C2C1=C(O)CCCC1=O
    2.5%	-7.2%	-6.9%	16.8%	3.0%	4.3%	6.2%	5.4%
COc1ccc(C2(C)NC(=O)N(CC(=O)NCC(=O)Nc3ccc(F)c(F)c3F)C2=O)cc1OC (stereo not given)
    x	-1.0%	6.6%[46.1 µM]	24.7%[46.1 µM]	x	3.9%	17.5%	x
COC(=O)c1ccc2c(c1)N(Cc1ccc(F)cc1)C(=O)c1ccccc1S2
    -6.3%	0.0%	x	-0.1%[46.1 µM]	-11.0%	x	x	x
CSc1cccc(NC(=O)Cn2c(=O)n(Cc3ccccc3)c(=O)c3sc4ccccc4c32)c1
    0.7%	u	-11.7%[46.1 µM]	-9.4%[46.1 µM]	-3.2%	x	x	x
C=CCn1c(SC2CCOC2=O)nc2sc(C)c(C)c2c1=O (stereo not given)
    -4.6%	-1.0%	2.3%	0.0%	0.1%	2.2%	15.7%	4.4%
Nc1nc2n(n1)C(c1cccc(Cl)c1)CC(c1ccc(F)cc1)N2 (stereo not given)
    3.0%	u	-1.5%	x	0.1%	3.6%	-0.8%	8.2%
Cc1cc(NC(=O)Nc2ccccc2F)ccc1Br
    x	-7.7%	u	u	x	-0.4%	-2.5%	-2.8%
O=C(O)C1CCC(N2C(=O)C3CCCCC3C2=O)CC1 (stereo not given)
    4.2%	7.6%	0.8%	2.7%	-7.4%	11.0%[3.69 µM]	-3.8%	5.9%
COc1ccc(NS(=O)(=O)c2cc([N+](=O)[O-])ccc2N/N=C\c2c(C)[nH]c3ccccc23)cc1
    2.1%	-12.7%	18.4%[46.1 µM]	-1.6%	u	0.2%	-2.4%	6.8%
COc1ccc(-c2cc(C(=O)O)c3ccccc3n2)c(OC)c1
    -0.2%	-18.3%	22.2%[46.1 µM]	0.6%	6.4%	-2.9%	2.3%	-1.9%
CCCCNC(=O)N1CCN(S(C)(=O)=O)CC1
    x	-7.9%	3.9%[46.1 µM]	10.7%	x	11.2%	-1.2%	4.0%
COc1ccc(-c2csc(Nc3cccc(C)n3)n2)cc1C
    x	26.1%	u	u	x	-5.9%	-4.2%	16.1%
CC(Nc1nc(-c2ccccc2F)nc2ccccc12)c1ccccc1 (stereo not given)
    x	u	u	u	x	u	-8.5%	-116.1%
CCOC(=O)c1c(C)oc2c(CC(=O)c3ccccc3)c(Cl)c(O)c(O)c12
    -3.4%	0.9%	24.8%	u	-24.0%	0.2%	-19.1%	12.3%
COc1cccc(C2CC(c3ccc(Cl)cc3Cl)Nc3nc(N)nn32)c1 (stereo not given)
    7.0%	-24.9%	-20.9%	0.1%	-24.4%	-6.6%	-4.7%	11.0%
CCOc1ccc(C(C)(O)CN2CCOCC2)cc1 (stereo not given)
    0.4%	-10.4%	6.1%	-0.6%	-5.5%	-2.9%	-0.5%	-15.7%
COC(=O)c1ccccc1NC(=O)Cn1cc2c(n1)CCC(C)C2 (stereo not given)
    -2.4%	0.0%	u	8.3%	-10.6%	-2.8%	2.0%	-47.5%
CCOC(=O)C1CCCN(Cc2nc(N)nc(Nc3ccccc3)n2)C1 (stereo not given)
    6.3%	0.0%	u	-0.7%	-12.6%	-6.3%	5.0%	10.2%
Cc1c(N(C(=O)CNC(=O)c2ccccc2)C2(C(=O)NC3CCCCC3)CCCCC2)c(=O)n(-c2ccccc2)n1C
    x	25.1%	11.1%[46.1 µM]	7.4%	x	-10.6%	1.8%	x
Cc1c(-c2nsc(NC(=O)c3cccs3)n2)nnn1-c1ccc(Br)cc1
    2.5%	34.6%[activator]	x	u	u	x	x	x
O=C(N/N=C/c1c(O)n(C2CC2)c(=S)[nH]c1=O)c1ccccc1Cl
    x	16.3%	10.5%[46.1 µM]	-19.2%[46.1 µM]	x	-2.4%	-5.5%	u
CNC(=S)Nc1ccc(C)cc1
    -1.4%	2.5%	10.3%&10.3%	7.5%	-1.1%	0.2%	20.5%	7.8%
COC(=O)C1=C(C)N(C)C(C)=C(C(=O)OC)C1c1cccc(Br)c1
    -7.5%	-3.7%	0.0%	13.5%	6.1%	14.4%	-9.1%	-92.8%
Cc1n[nH]c(=S)n1/N=C/c1ccc(OCc2ccc(Cl)cc2Cl)cc1
    -2.4%	20.4%	u	u	-14.1%	10.1%	6.1%	-28.0%
Cc1ccc(F)cc1NC(=O)c1ccc2c(c1)OCO2
    4.3%	28.9%	26.6%	-0.4%	-8.6%	10.1%	-0.8%	-1.6%
CN1CCCC(OC(=O)c2ccccc2F)C1 (stereo not given)
    x	-12.9%	x	x	x	-16.0%	0.8%	7.7%
CNC(=S)NCCC(c1ccccc1)c1ccccc1
    -3.0%	5.2%	u	-17.1%	-4.5%	13.0%	8.5%	7.6%
CCOc1ccc(CCNC(=O)CCC(=O)N2CCSc3ccccc32)cc1OCC
    x	-24.0%	x	x	x	-1.7%	3.7%	9.7%
COC(=O)c1c(C)nc(C)c(C(=O)OC)c1-c1ccc(OC)c(OC)c1
    x	-16.4%	-0.9%[46.1 µM]	-1.5%[46.1 µM]	x	34.7%	0.6%	-4.2%
COCCCNc1nc(-c2ccc(Cl)cc2)nc2ccccc12
    x	-26.7%	11.2µM*	u	x	5.0%	-16.3%	-91.0%
COC(=O)c1cc2ccccc2c(-c2c(OC)c(C(=O)OC)cc3ccccc23)c1OC
    -17.3%	-23.8%	6.51µM*	u	u	-6.1%	-22.0%	-32.1%
Nc1c(N2CCCCC2)c2ccccc2oc1=O
    x	-4.6%	1.6%[46.1 µM]	6.7%	x	-2.9%	-2.7%	x
CCOC(=O)[C@@H]1[C@H]2COc3ccccc3[C@@H]2N2C(=O)N(c3ccccc3)C(=O)[C@]12C
    x	0.0%	x	x	x	-12.4%	-0.7%	4.1%
CCOc1ccc(N(C(=O)c2ccccc2F)S(=O)(=O)c2ccc3c(c2)n(C)c(=O)n3C)cc1
    -0.8%	-17.5%	-1.6%[46.1 µM]	-19.0%[46.1 µM]	6.7%	x	x	x
O=C(CC1Sc2ccccc2NC1=O)OCC(=O)N1CCc2ccccc21 (stereo not given)
    -6.6%	20.9%	5.8%	6.7%	u	17.0%	1.2%	8.2%
CC1=Nc2cc(C(=O)NC3CCCC3)ccc2Sc2ccc(Br)cc21
    -3.3%	-24.1%	u	-21.2%[46.1 µM]	u	x	x	x
CCc1ccccc1NC(=O)Cn1ccn(-c2cc(C)cc(C)c2)c(=O)c1=O
    -8.6%	2.8%	x	3.1%[46.1 µM]	u	x	x	x
CCn1c(=O)n(-c2ccc3c(c2)OCO3)c2nc(-c3cccc(OC)c3OC)nc(C(N)=O)c21
    0.1%	-22.4%	15.1%[46.1 µM]	22.6%[46.1 µM]	-0.7%	x	x	x
Cc1ccc(CNC(=O)CCc2c(C)nn(-c3ccc(N4CCOCC4)nn3)c2C)cc1
    -1.2%	4.5%&-1.2%	x	9.5%[46.1 µM]	-2.3%	-4.8%	-0.8%	12.7%
CC1CC(C)CN(C(=S)NC2CCCCC2)C1 (stereo not given)
    -3.2%	0.0%	u	-3.4%	-14.8%	-3.1%	1.7%	-17.4%
CCCC(=O)Nc1nnc(SCC(=O)NCc2cccs2)s1
    1.3%	21.7%	-7.4%	-0.1%	-3.1%	0.9%	-2.2%	-13.8%
COc1ccc(/C=C2\SC(=S)N(CC(=O)NCCO)C2=O)cc1
    x	6.5%	8.8%	-2.8%[46.1 µM]	x	12.6%	2.5%	x

An unsorted share of the library, and some 4.7% of all compounds hit somewhere here.
